LANA-nucl inh: inhibitors of KSHV LANA binding to nucleosomes; z-score (test concentration not listed); FITC-LANA1-23 / chicken nucleosome fluorescence polarization; active compounds read low; AID 720717; 51,000 tested, 0.3% active;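 active means both repeat wells score below -2 in polarization z-score versus plate sample wells, excluding overly bright wells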;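 further: 100 nL library stock added to about 30 µL; numbers are from one replicate; some results filed as inactive read as strong as hits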
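System – purified chicken nucleosomes with FITC-labelled LANA N-terminal peptide (1-23) · Amount – 240 nM purified chicken nucleosomes (480 nM peptide binding sites), final · Also added – 50 nM FITC-LANA1-23 probe · Medium – TEN-BT buffer, pH 7.5 · Incubation – compound with peptide–nucleosome mix 10–45 min at room temperature · Detection – fluorescence polarization, ex 480 nm, em 535 nm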
BasE inh: inhibitors of Acinetobacter baumannii siderophore enzyme BasE | purified BasE, fluorescence polarization binding displacement | inhibition, % (no concentration beside the values) | 84,000 tested, 0.1% active;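 active means both replicates above 25% with normal brightness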;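 further: 0% = negative plate control signal and 100% = positive plate control signal; stock transfer was 100 nL into about 30 µL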
* = called active by the depositor; · = no result given; & = joins results of further samples.

| canonical_smiles | LANA-nucl inh | BasE inh |
| --- | --- | --- |
| CC1=Nc2ccccc2N=C(NC(=O)CN2CCCCCC2)C1c1ccccc1 (stereo not given) | 0.26 | -5.2 |
| COc1ccc(C2Nc3ccccc3-c3nnc(SC)nc3O2)cc1 (stereo not given) | 0.12 | 1.5 |
| Cc1cc(C(=O)CSc2nccn2-c2cccc(F)c2)c(C)n1-c1ncn[nH]1 | · | -12 |
| CCSc1nnc(CCNC(=O)C2CCCC2)n1C | -0.86 | 1.1 |
| CC(C)Cn1c(SCC(=O)c2ccc[nH]2)nc2ccccc2c1=O | · | -0.1 |
| CN1CCN(C(=O)CSCc2ccc(Br)cc2)CC1 | -1 | 2.2 |
| O=C(Nc1nc2ccc(F)cc2s1)C1CCCC1 | · | 0.5 |
| O=C(O)c1cccnc1SCc1cc(=O)n2cc(Br)ccc2n1 | · | 1.2 |
| O=C(Cc1cccc2ccccc12)NCC(=O)Nc1ccc(N2CCOCC2)cc1 | · | 1.7 |
| Cc1ccc(-c2cc3nc4c(c(C(F)(F)F)n3n2)CCC4)cc1 | -0.088 | -0.3 |
| N#CCSc1nnnn1-c1cccnc1 | -0.93 | 2.6 |
| CCN(CC)Cn1nc(-c2ccccc2Cl)oc1=S | 1.2 | 0.5 |
| Cc1sc2nc(CSC(C)C(=O)OCc3cc(=O)n4ccsc4n3)[nH]c(=O)c2c1C (stereo not given) | · | 1.3 |
| NC(=O)c1ccccc1OCC(=O)NCC(F)(F)F | · | 2.4 |
| S=c1[nH]cnc2sccc12 | · | 3.5 |
| CC1CC(=O)Nc2ccccc2N1C(=O)CNCc1ccccc1 (stereo not given) | -0.88 | 1.8 |
| CCOC(=O)c1ccc(N2C(=O)C(O)=C(C(=O)c3ccco3)C2c2cccnc2)cc1 (stereo not given) | -1 | 1.5 |
| CN(C)CCC(O)c1ccc2c(c1)OCCCCO2 (stereo not given) | -0.11 | · |
| O=c1c2ccccc2c2ccccc2c(=O)n1Cc1cccnc1 | · | 3.6 |
| CCOC(=O)C1(C(=O)OCC)CC1(C(=O)OCC)C(=O)OCC | 0.82 | 1.7 |
| O=S(=O)(NCc1ccccc1)c1ccccc1C(F)(F)F | · | 0.6 |
| C=CCn1c(=O)c2ccccc2n2c(SCC(=O)c3cc(C)ccc3C)nnc12 | · | -1.3 |
| CC1CC(C)CN(c2ncnc3c2nc2n3CCCCC2)C1 (stereo not given) | -0.99 | 0.3 |
| CC1OC1P(=O)(O)O (stereo not given) | -0.27&-0.18 | -0.9 |
| O=C(O)C(CO)c1ccccc1 (stereo not given) | -0.21 | 2.0 |
| CC(C)C(=O)N1CCC(CN=CC2=C(O)CC(C)(C)CC2=O)CC1 | -0.036 | 3.6 |
| COc1cc(OC)c(NC(=O)/C=C/c2cc(C)n(Cc3ccco3)c2C)cc1Cl | · | 3.9 |
| Cc1ccc(-c2cn(S(=O)(=O)c3cccc4nsnc34)nc2N)cc1 | 0.8 | 4.4 |
| CC1CCN(C(=O)c2ccc3c(c2)OCCO3)CC1 | 0.54 | 2.5 |
| CCc1ccc(CCC(=O)O)cc1 | · | 1.1 |
| COc1ccc(/C=N/S(=O)(=O)c2cccs2)cc1 | · | 3.1 |
| Cc1ccc(C(C)C)cc1OC(=O)c1cn(CCC#N)nc1-c1cccs1 | 0.5 | 0.2 |
| CN(CC(=O)Nc1ccc(F)c(F)c1F)C(=O)C1COc2ccccc2O1 (stereo not given) | · | -1.1 |
| COC(=O)C1Cc2c([nH]c3ccccc23)C(c2ccc(Cl)cc2)N1 (stereo not given) | 0.66 | · |
| Brc1ccc(-c2nnc3sc(CNCc4ccco4)cn23)cc1 | 0.56 | -1.1 |
| O=C(CSc1nnc(-c2ccc(Cl)cc2)o1)c1ccc(Cl)cc1 | 0.066 | 0.8 |
| CCN(Cc1ccccc1)C(=O)COC | -0.29 | 1.4 |
| O=C(OCN1C(=O)c2ccccc2C1=O)C1CCN(S(=O)(=O)c2ccc(Cl)cc2)CC1 | · | 1.1 |
| COc1ccc(N2CCN(c3ccc(OC)cc3)C2c2cc(OC)ccc2O)cc1 | -0.52 | 0.3 |
| N#CCCCn1c(-c2ccc(Cl)cc2)noc1=O | 0.95 | -1.1 |
| CCOc1ccc2[nH]c(=O)c(CN(CCc3ccccc3)C(=O)N(C)C)cc2c1 | 0.31 | 1.2 |
| CCc1ccc(-c2nc(SCC(=O)N3CCCC3=O)n[nH]2)cc1 | · | -4.0 |
| COC(=O)c1cc(NC(=O)NCc2noc3ccccc23)cc(C(=O)OC)c1 | -0.25 | 1.8 |
| Cc1ccc(NC(=O)c2ccc(S(=O)(=O)N3CC(C)CC(C)C3)cc2)c(C(=O)c2ccccc2)c1 (stereo not given) | · | 1.2 |
| CN1c2ccccc2Oc2nnc(N3CCN(C(=O)c4ccco4)CC3)cc21 | -0.52 | 0.9 |
| COCCN1C(=O)c2ccccc2C(C(=O)N2CCCC2)C1c1cn(C)c2ccccc12 (stereo not given) | 0.62 | 2.8 |
| CC1SC(C)C(=O)N(CC(=O)Nc2ccccc2F)C1=O (stereo not given) | -0.11 | -0.5 |
| O=C(O)c1cc2ccccc2n1-c1ccccc1 | 0.75 | 2.5 |
| Cc1cc2c(cc1S(=O)(=O)NCCC1=CCCCC1)n(C)c(=O)c(=O)n2C | 0.54 | 1.6 |
| Cc1noc(C)c1CSc1ncccc1C(=O)NCCc1c[nH]c2ccccc12 | · | 0.3 |
| Cc1cc(C(=O)COC(=O)c2ccccc2S(C)=O)c(C)n1CCC1=CCCCC1 (stereo not given) | · | 2.3 |
| O=C(c1ccc(CS(=O)(=O)c2ccc(Br)cc2)o1)N1CCN(c2ccc(Cl)cc2)CC1 | -1.3 | -3.1 |
| NC(=S)N/N=C1/C2C3CC4C1C1C2CC3C41 (stereo not given) | · | 2.9 |
| Cc1cc(=O)[nH]c(SCC(=O)NCCCc2ccccc2)n1 | · | 0.9 |
| CN1CCc2c(sc3c2C(=O)NC(c2cccc(O)c2)N3)C1 (stereo not given) | 1.3 | 1.2 |
| CN(C)C(CNC(=O)c1ccc(-c2ccccc2)cc1)c1ccco1 (stereo not given) | · | -1.1 |
| O=C(c1ccc(-n2cnnn2)cc1)N1CCN(C(c2ccccc2)c2ccccc2)CC1 | · | 1.3 |
| COc1ccc(-c2nc(SCC(=O)N3CCCC3)n[nH]2)cc1 | -0.79 | -1.6 |
| OC(CN1CCC(c2nc3ccccc3o2)CC1)c1ccccc1 (stereo not given) | · | -0.1 |
| N#CCCNC12CC3CC(CC(C3)C1)C2 | · | -0.7 |

In another format: entries from further up
Values run as follows: LANA-nucl inh	BasE inh
CN(C)C(CNC(=O)c1ccc(-c2ccccc2)cc1)c1ccco1 (stereo not given)
    ·	-1.1
O=C(c1ccc(-n2cnnn2)cc1)N1CCN(C(c2ccccc2)c2ccccc2)CC1
    ·	1.3

Next records follow.
| canonical_smiles | LANA-nucl inh | BasE inh |
| --- | --- | --- |
| Cc1cc(=O)oc2cc(OCC(O)CN3CCc4ccccc4C3)ccc12 (stereo not given) | · | -3.3 |
| Cc1ccc(NC(=O)c2ccc(-c3ccccc3)cc2)nc1 | · | -0.3 |
| CCCCN1C(=O)C(O)(CC(=O)c2ccc3c(c2)OCCO3)c2ccccc21 (stereo not given) | 0.14 | 0.7 |
| CCOc1ccc(CN(C)CC(O)COCC2CCCO2)cc1 (stereo not given) | · | 0.9 |
| CN(c1ccc(Cl)cc1)c1nc(O)c(C2=c3cc(F)ccc3=NC2=O)s1 | -1.5 | -3.4 |
| Cc1ccnc(SC(C)C(=O)O)n1 (stereo not given) | 2.3 | -0.3 |
| O=S(=O)(Cc1cccc(C(F)(F)F)c1)NCc1csc(-c2cccs2)n1 | 0.9 | -2.1 |
| CC(C)N(C(=O)COn1nnc2ccccc21)c1ccccc1 | · | 2.9 |
| Cc1cccc(C)c1OCC(=O)N(CC(N)=O)C(C)C | · | -0.4 |
| CC(C)Cn1c(N)c(C(=O)NCc2cccs2)c2nc3ccccc3nc21 | -0.94 | 0.1 |
| O=C(Cc1ccc(Br)cc1)Nc1ccc(-c2nnc(-c3ccccc3)o2)cc1 | -0.47 | 5.6 |
| O=C(NCC1CCCO1)c1cccc(Nc2nc3ccccc3n3cnnc23)c1 (stereo not given) | 0.3 | -0.5 |
| Cc1cc(C(=O)Nc2sc(C)c(C)c2C(=O)NCc2cccnc2)no1 | 0.24 | 0.4 |
| O=C(CN(C(=O)c1cc2c(s1)CCC2)C1CCCC1)NCc1cccs1 | -0.24 | -0.6 |
| CC1CCCCN1C(=O)C1CCN(S(=O)(=O)c2ccc(-n3cnnn3)cc2)CC1 (stereo not given) | -0.23 | 2.5 |
| C=CCN1C(=O)c2ccc(C(=O)OCc3cn4ccccc4n3)cc2C1=O | · | 3.7 |
| CCOc1ccccc1-c1nnc(CS(=O)(=O)c2ccccc2)o1 | 0.12 | -0.5 |
| Cc1nnc(SCC(=O)NC(=O)C2COc3ccccc3O2)n1Cc1ccccc1 (stereo not given) | · | 2.4 |
| CCCOc1ccc(Cl)cc1C(=O)O | -0.9 | 1.1 |
| Cc1ccc2ncc(C(=O)NC(C)(C)C)c(=O)n2c1 | 0.076 | -0.3 |
| O=C(CSc1nc2sc3c(c2c(=O)[nH]1)CCCC3)Nc1nc2c(s1)CCCC2 | -2.1 | -1.2 |
| Cc1sc(NC(=O)c2ccccc2F)c(C(=O)O)c1C | 0.3 | 0.1 |
| CCCN(CC(=O)Nc1ccccc1C)C(=S)NC | · | 0.7 |
| CC(=O)N1CCN(c2ccccc2F)CC1 | 0.24 | -1.6 |
| COc1cc(CC(=O)Nc2nc3ccc(S(N)(=O)=O)cc3s2)cc(OC)c1OC | · | -3.8 |
| CC(C)Cn1cc(NC(=O)N2CCC(c3ccccc3)C2)c2ccccc2c1=O (stereo not given) | · | 0.4 |
| O=C(CCCSc1nc2cc(Cl)ccc2c(=O)n1Cc1ccco1)N1CCOCC1 | · | 0.3 |
| Cc1onc(-c2ccccc2)c1CNC(=O)NC1CCN(C(=O)OCc2ccccc2)CC1 | · | 2.2 |
| CCOC(=O)C1CCN(/C=C(\C#N)S(=O)(=O)c2ccc(Cl)cc2)CC1 | -0.79 | -0.2 |
| c1ccc(C2CN3CCSC3=N2)cc1 (stereo not given) | -0.5&0.95 | -0.5&1.1 |

Next section, overlapping the part above by 3 compounds.
| canonical_smiles | LANA-nucl inh | BasE inh |
| --- | --- | --- |
| Cc1onc(-c2ccccc2)c1CNC(=O)NC1CCN(C(=O)OCc2ccccc2)CC1 | · | 2.2 |
| CCOC(=O)C1CCN(/C=C(\C#N)S(=O)(=O)c2ccc(Cl)cc2)CC1 | -0.79 | -0.2 |
| c1ccc(C2CN3CCSC3=N2)cc1 (stereo not given) | -0.5&0.95 | -0.5&1.1 |
| CCc1nnc(NC(=O)c2nnn(-c3cccc(C(F)(F)F)c3)c2C)s1 | -0.22 | -0.3 |
| Cc1ccc(-c2ccn(-c3ccc(C)c(Cl)c3)c(=S)n2)cc1 | · | 2.1 |
| COc1cnn(-c2ccccc2)c(=O)c1N(C)C | 0.032 | -2.9 |
| CCOC(=O)/C(Br)=N\Nc1ccc(C)cc1 | -2.1 | 2.4 |
| CC(C)(CO)NCc1ccc(-c2ccc(Cl)cc2)o1 | -0.74 | 0.4 |
| COCCNC(=O)c1cc2c(=O)n3cccc(C)c3nc2n(Cc2cccnc2)c1=N | 1.2 | -1.8 |
| COC(=O)c1c(C(=O)OC)c(C)n(Cc2cccnc2)c1C | 0.95 | -1.8 |
| Cc1cccc(C2=NN3C(=O)c4ccccc4C3C2)c1 (stereo not given) | -0.84 | 0.9 |
| c1ccc(CCn2nnc3ccccc32)cc1 | · | 1.3 |
| CCCCn1c2ccc(Cl)cc2c2nc3ccccc3nc21 | 0.3 | 2.2 |
| CC(C)NC(=O)CSc1nnc(SCC(=O)NC(C)C)s1 | · | -0.6 |
| Cc1nn(C)c(C)c1NC(=O)Nc1ccccc1 | · | -2.0 |
| COc1cccc(CNC(=O)C2=NNC(=O)CC2)c1 | · | 1.1 |
| O=C(NCCc1c[nH]c2ccccc12)NC1CC(=O)N(c2ccccc2)C1 (stereo not given) | -0.63 | 0.7 |
| CN(C)S(=O)(=O)c1cccc(CSc2nnc(-c3c[nH]c4ccccc34)o2)c1 | · | 1.4 |
| CCOC(=O)CN1C(=O)/C(=c2\sc3nc4ccccc4n3c2=O)c2ccccc21 | 0.062 | 2.1 |
| COc1ccc(OCC(NS(=O)(=O)c2ccc(-n3cnnn3)cc2)C(C)C)cc1 (stereo not given) | -0.49 | 0.5 |
| CCOC(=O)c1[nH]c(C)c(C(=O)N2CCCC(C)C2)c1C (stereo not given) | 0.46 | -0.9 |
| CCN(C(=O)CSc1ccc2ccccc2n1)C1CCS(=O)(=O)C1 (stereo not given) | · | 1.2 |
| NC(=O)c1c(NC(=O)Cn2cnc3c(cnn3-c3ccccc3)c2=O)sc2c1CCC2 | · | 2.3 |
| COc1ccc2c3c([nH]c2c1)[C@H]1C[C@H]2[C@H](C[C@@H](O)[C@H](OC)[C@H]2C(=O)O)CN1CC3 | 0.21 | 0.6 |
| CCN(CC)S(=O)(=O)c1ccc(O)c(C(=O)OCC(=O)N2c3ccccc3CC2C)c1 (stereo not given) | · | -4.2 |
| Cc1cccc(NC(=O)COC(=O)c2ccco2)c1 | · | -0.5 |
| Cc1cccc(N2C(=O)CC(SCc3nc4ccccc4[nH]3)C2=O)c1 (stereo not given) | 0.24 | 0.3 |

As a working copy, 3 of the compounds above.
| canonical_smiles | LANA-nucl inh | BasE inh |
| --- | --- | --- |
| CCCCn1c2ccc(Cl)cc2c2nc3ccccc3nc21 | 0.3 | 2.2 |
| CC(C)NC(=O)CSc1nnc(SCC(=O)NC(C)C)s1 | · | -0.6 |
| Cc1nn(C)c(C)c1NC(=O)Nc1ccccc1 | · | -2.0 |

Screens deposited in PubChem by ICCB-Longwood Screening Facility, Harvard Medical School.

Not all compounds are listed; the hit share may differ from the screen's.
